# Assay outcomes: PubChem, Broad Institute
# DUX4 txn inh = inhibitors of DUX4-driven ZSCAN4 reporter expression, primary screen, 293T cells, Gaussia and Italica luciferase | 293T-iDUX4 ZSCAN4-Gaussia luciferase reporter, 24 h; active compounds read low | activity change, negative = inhibition, % (concentration not given with the values) | 37,000 tested, 0.8% active;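 active means -10% or lower and over 25 points stronger than a control reporter; inconclusive means -10% or lower with a smaller gap; inactive means above -10%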;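 further: 0% = median of neutral control wells and -100% = median of positive control wells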
# DUX4 txn inh difference = second read-out of DUX4 txn inh, no call of its own (marks repeat the call); Gaussia minus Italica difference, %; measured here: selective DUX4 reporter inhibition;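 worked out from the two reporters; negative = selective loss of the DUX4 reporter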
# DUX4 txn inh control = second read-out of DUX4 txn inh, no call of its own (marks repeat the call); activity change, negative = inhibition, %; measured here: Italica tet-on control reporter;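 0 = neutral control and -100 = positive control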
# Numbers without * were called inactive; ? = inconclusive; . = not tested or not shown; & = joins results of further samples. An excerpt. The share of hits here may be higher or lower than overall.
nr	Compound	DUX4 txn inh	DUX4 txn inh difference	DUX4 txn inh control
1	O=C(C[C@H]1CC[C@H]2[C@@H](COC[C@H](O)CN2Cc2ccc(Cl)cc2)O1)NCc1cccc(F)c1	?	.	.
2	COc1ccc2c3c([nH]c2c1)[C@@H](CO)N(C(C)=O)CC31CCN(C(=O)Nc2ccc(F)cc2)CC1	0	-4	4.0
3	CCC(=O)Nc1ccc2c(c1)OC[C@H](C)N(C(=O)c1ccncc1)C[C@H](C)[C@H](OC)CN(C)C2=O	3	4	-0.7
4	C[C@@H]1CCCCO[C@H](CN(C)Cc2ccc3c(c2)OCO3)[C@@H](C)CN([C@H](C)CO)C(=O)c2cc(NC(=O)CCC(F)(F)F)ccc2O1	-4	-3	-0.5
5	CC1C=NC(S(=O)(=O)N2CC[C@@H]3[C@H](CO)N(C)c4ccc(-c5ccc(F)cc5)cc4[C@@H]32)=N1 (some centres not stated)	0	-1	1.2
6	C[C@@H]1CN([C@@H](C)CO)C(=O)CCCn2cc(nn2)CO[C@@H]1CN(C)C(=O)OCc1ccccc1	-3	-5	2.0
7	CS(=O)(=O)N1CC(=O)N2[C@H](CO)[C@@H](c3ccc(C#CCc4ccccc4)cc3)[C@@H]2C1	?	.	.
8	COc1ccccc1C#Cc1ccc([C@H]2[C@@H](CO)N3CCCCN(CCC(F)(F)F)C[C@H]23)cc1	?	.	.
9	CN(C)C(=O)c1ccc(-c2ccc3c(c2)[C@H]2[C@H](CCN2Cc2ccc4c(c2)OCO4)[C@H](CO)N3)cc1	2	14	-12
10	CN1C(=O)c2cc(NC(=O)C3CCOCC3)ccc2OC[C@H]2O[C@H](CC(=O)NCc3ccccc3F)CC[C@@H]21	-3	-5	1.6
11	CCCC#Cc1ccc2c(c1)[C@@H]1[C@@H](CCN1S(=O)(=O)c1ccc(F)cc1)[C@@H](CO)N2C	?	.	.
12	COCC(=O)N1[C@H](C#N)[C@@H](c2ccccc2-c2ccccc2F)[C@@H]1CO	7	11	-3.4
13	CCCN1C[C@@H](C)[C@H](OC)CN(C)C(=O)c2ccc(NC(=O)c3ccc(F)cc3)cc2OC[C@@H]1C	-4	-2	-2.3
14	COc1ccccc1NC(=O)N1C[C@@H](O)COC[C@H]2O[C@@H](CC(=O)NCCc3ccncc3)CC[C@@H]21	10	10	-0.4
15	O=C(Nc1cccc(F)c1)N1CC(=O)N2[C@H](C1)[C@@H](c1ccc(C#CC3CC3)cc1)[C@@H]2CO	2	3	-1.3
16	C[C@H]1CN([C@@H](C)CO)C(=O)c2ccccc2-c2ccccc2CO[C@H]1CN(C)C(=O)Nc1cccc(Cl)c1Cl	?	.	.
17	O=C(C[C@H]1C[C@@H]2c3cc(NS(=O)(=O)c4ccccc4)ccc3O[C@@H]2[C@@H](CO)O1)N1CCOCC1	1	2	-0.9
18	CO[C@H](CN(C)Cc1ccc2c(c1)OCO2)[C@H](C)CN(C(=O)Nc1ccc(F)cc1)[C@H](C)CO	-2	2	-3.4
19	COc1cccc(CN2CCCCN3[C@H](CO)[C@@H](c4ccc(-c5cccnc5)cc4)[C@H]3C2)c1	5	-14	20
20	CCC(=O)Nc1ccc2c(c1)C(=O)N(C)[C@@H]1CC[C@@H](CC(=O)N[C@@H](C)c3ccccc3)O[C@H]1CO2	-1	2	-2.1
21	C[C@@H]1CN([C@@H](C)CO)C(=O)c2cc(C3=CCCC3)cnc2O[C@@H]1CN(C)Cc1cccc(F)c1	-1	-2	0.3
22	CCOC(=O)CCCCCC(=O)Nc1ccc2c(c1)C(=O)N([C@@H](C)CO)C[C@H](C)[C@H](CN(C)C(=O)c1ccccc1)OCCCC[C@H](C)O2	-1	-1	0.5
23	COc1cccc(NC(=O)N[C@@H]2C=C[C@@H](CC(=O)N3CCOCC3)O[C@H]2CO)c1	-3	-3	0.2
24	C[C@@H]1CN([C@@H](C)CO)C(=O)Cc2cc(NS(=O)(=O)c3ccc(Cl)cc3)ccc2O[C@H]1CN(C)C(=O)Nc1ccc(C(F)(F)F)cc1	4	4	-0.4
25	COc1ccccc1CNC(=O)C[C@@H]1C[C@@H]2c3cc(NC(=O)CN(C)C)ccc3O[C@@H]2[C@@H](CO)O1	6	2	4.0
26	CNC[C@H]1Oc2ccc(NC(=O)Cn3cnnn3)cc2C(=O)N([C@@H](C)CO)C[C@@H]1C	2	0	1.2
27	C[C@@H]1CCCCO[C@H](CN(C)C(=O)CCC(F)(F)F)[C@@H](C)CN([C@@H](C)CO)C(=O)c2cc(NC(=O)C3CCCCC3)ccc2O1	2	4	-1.9
28	CC(C)NC(=O)N1CCCCN2[C@H](CO)[C@@H](c3ccc(C#C[C@@H](C)O)cc3)[C@H]2C1	40	26	14
29	COc1ccc2c3c(n(C)c2c1)[C@H](CO)N(C(=O)Cc1ccccc1)CC31CN(C)C1	-1	1	-1.8
30	COCC(=O)Nc1ccc2c(c1)[C@@H]1C[C@@H](CC(=O)N[C@H](C)c3ccccc3)O[C@H](CO)[C@@H]1O2	10	12	-1.7

# Ordered by value in DUX4 txn inh control (low to high): 5 of the compounds above
nr	Compound	DUX4 txn inh	DUX4 txn inh difference	DUX4 txn inh control
9	CN(C)C(=O)c1ccc(-c2ccc3c(c2)[C@H]2[C@H](CCN2Cc2ccc4c(c2)OCO4)[C@H](CO)N3)cc1	2	14	-12
12	COCC(=O)N1[C@H](C#N)[C@@H](c2ccccc2-c2ccccc2F)[C@@H]1CO	7	11	-3.4
30	COCC(=O)Nc1ccc2c(c1)[C@@H]1C[C@@H](CC(=O)N[C@H](C)c3ccccc3)O[C@H](CO)[C@@H]1O2	10	12	-1.7
23	COc1cccc(NC(=O)N[C@@H]2C=C[C@@H](CC(=O)N3CCOCC3)O[C@H]2CO)c1	-3	-3	0.2
25	COc1ccccc1CNC(=O)C[C@@H]1C[C@@H]2c3cc(NC(=O)CN(C)C)ccc3O[C@@H]2[C@@H](CO)O1	6	2	4.0

# Later entries:
nr	Compound	DUX4 txn inh	DUX4 txn inh difference	DUX4 txn inh control
31	CO[C@H]1CN(C)C(=O)c2ccc(NC(=O)NC(C)C)cc2OC[C@H](C)N(S(C)(=O)=O)C[C@@H]1C	-3	-4	0.7
32	O=C(NCC[C@H]1CC[C@@H](NS(=O)(=O)c2ccc(F)cc2)[C@H](CO)O1)c1ccc2c(c1)OCO2	9	4	5.0
33	COc1ccc(C#Cc2ccc([C@H]3[C@H](CO)N4CCCCN(Cc5ccccc5F)C[C@@H]34)cc2)cc1	-21*	-26*	4.4*
34	C/C=C/c1ccc([C@H]2[C@@H](CO)N(C(=O)CN(C)C)C23CN(C(=O)C2CCC2)C3)cc1	7	6	0.7
35	O=C(c1ccc(F)cc1)N1CC(=O)N2[C@@H](CO)[C@H](c3ccc(C#CCC4CCCC4)cc3)[C@@H]2C1	?	.	.
36	CC=Cc1ccc2n(c1=O)C[C@H]1[C@H](CO)[C@@H](C(=O)NCCOC)[C@@H]2N1Cc1nccs1 (mixture of isomers)	4	4	0.6
37	O=C([C@H]1[C@H](CO)[C@H]2Cn3c(ccc(-c4ccncc4)c3=O)[C@@H]1N2CCC(F)(F)F)N1CCCCC1	5	3	1.5
38	CO[C@@H](CN(C)C(=O)C1CCOCC1)[C@H](C)CN(C(=O)Nc1ccc(F)cc1)[C@@H](C)CO	1	13	-12
39	COc1ccc(CN2C[C@H](O)COC[C@H]3O[C@H](CC(=O)NCc4ccccc4Cl)CC[C@@H]32)cc1	-9	1	-10
40	CCC(=O)N1CC2(C1)[C@@H](c1ccc(-c3ccc(C#N)cc3)cc1)[C@@H](CO)N2C(C)=O	6	6	-0.3
41	C[C@@H]1CN([C@@H](C)CO)C(=O)c2ccccc2-c2ccccc2CO[C@H]1CN(C)S(=O)(=O)c1cn(C)cn1	-3	-8	4.8
42	COc1ccc(OC(=O)N(C)C[C@H]2OCc3ccccc3-c3ccccc3C(=O)N([C@H](C)CO)C[C@@H]2C)cc1	14	15	-1.6
43	O=C([C@@H]1[C@@H](CO)[C@@H]2Cn3c(ccc(C4=CCCC4)c3=O)[C@H]1N2C(=O)c1ccncc1)N1CCCCC1	5	3	2.0
44	CO[C@@H]1CN(C)C(=O)c2ccc(NC(=O)Nc3ccccc3Cl)cc2OC[C@@H](C)NC[C@@H]1C	-1	0	-1.6
45	COc1ccccc1CN1[C@@H]2Cn3c(ccc(C4=CCCC4)c3=O)[C@H]1[C@@H](C(=O)N(C)C)[C@@H]2CO	1	1	-0.2
46	COc1ccc2c3c(n(C)c2c1)[C@H](CO)NCC31CN(Cc2ccncc2)C1	10	4	5.7
47	CN1C(=O)c2cc(NC(=O)Cc3ccccc3)ccc2OC[C@H]2O[C@@H](CC(=O)NCC3CC3)CC[C@H]21	0	0	0.1
48	C[C@H](CO)N1C[C@H](C)[C@H](CN(C)Cc2cccc(C(F)(F)F)c2)OCc2cn(nn2)CCCC1=O	1	-2	2.4
49	CS(=O)(=O)N1CCCCN2[C@H](C1)[C@H](c1ccc(-c3cccc(C#N)c3)cc1)[C@@H]2CO	39	35	4.0
50	CCC(=O)NC[C@@H]1[C@H](c2ccc(-c3ccccc3)cc2)[C@H](CO)N1C(=O)C1CC1	0	-2	1.9
51	C[C@H]1CN([C@@H](C)CO)C(=O)Cc2cc(NS(=O)(=O)c3ccc(Cl)cc3)ccc2O[C@@H]1CN(C)C(=O)Nc1ccc(C(F)(F)F)cc1	-2	-5	2.7
52	COc1ccc2c3c([nH]c2c1)[C@H](CO)N(C(=O)NC(C)C)CC31CN(C(=O)C2CCCC2)C1	6	9	-2.7
53	O=C(Cc1ccccc1)N1C[C@H]2[C@@H](c3ccccc31)[C@@H](CO)N2C(=O)C1CCOCC1	1	2	-1.6
54	CO[C@@H]1CN(C)C(=O)c2ccc(NC(=O)c3cccc(F)c3)cc2OC[C@H](C)N(C(C)=O)C[C@H]1C	-2	-1	-1.4
55	CN(C)CC#Cc1ccc([C@H]2[C@@H](CO)N3C(=O)CN(C(=O)Cc4cccnc4)C[C@H]23)cc1	15	4	10
56	N#C[C@H]1[C@H](c2ccccc2-c2ccccc2F)[C@H](CO)N1C(=O)c1ccccn1	11	6	5.2
57	COCC#Cc1ccc([C@@H]2[C@@H](CO)N3C(=O)CN(C(=O)CN4CCOCC4)C[C@@H]23)cc1	14	0	14
58	CO[C@H]1CN(C)C(=O)c2ccc(NC(=O)c3ccccc3)cc2OC[C@@H](C)N(C(=O)C2CC2)C[C@H]1C	-6	-6	-0.3
59	CC(C)NC(=O)N1[C@H](CO)[C@@H](c2ccccc2)C12CN(Cc1ccccc1)C2	?	.	.
60	O=C(C[C@H]1CC[C@H]2[C@@H](COC[C@H](O)CN2Cc2ccncc2)O1)NCc1ccccc1Cl	2	7	-5.4

# Other compounds follow:
nr	Compound	DUX4 txn inh	DUX4 txn inh difference	DUX4 txn inh control
61	COc1ccc(CNC(=O)N(C)C[C@@H]2OCc3ccccc3-c3c(n(C)c4ccccc34)C(=O)N([C@H](C)CO)C[C@H]2C)cc1	3	6	-3.0
62	O=C(C1CC1)N1[C@@H]2CN(S(=O)(=O)c3ccc(F)cc3)c3ccccc3[C@@H]2[C@@H]1CO	-2	1	-3.3
63	COc1cccc(S(=O)(=O)Nc2ccc3c(c2)[C@H]2C[C@H](CC(=O)NCc4ccc(Cl)cc4)O[C@H](CO)[C@H]2O3)c1	?	.	.
64	COc1ccc2c3c([nH]c2c1)[C@H](CO)N(Cc1ccccn1)CC31CCN(C(C)=O)CC1	8	-22	30
65	O=C1CNC[C@H]2[C@H](c3ccc(-c4ccccc4F)cc3)[C@@H](CO)N12	5	-2	7.5
66	C/C=C/c1ccc([C@@H]2[C@@H](CO)N[C@@H]2CN(C(=O)C2CCC2)C(C)C)cc1	1	2	-1.7
67	CN(C)C(=O)[C@H]1[C@H](CO)[C@H]2Cn3c(cccc3=O)[C@H]2N1CC1CCCCC1	3	-1	3.5
68	Cc1noc(C)c1S(=O)(=O)N(C)C[C@H]1Oc2ccc(NC(=O)Nc3ccc4c(c3)OCO4)cc2C(=O)N([C@H](C)CO)C[C@@H]1C	2	2	-0.2
69	C[C@H](CO)N1C[C@H](C)[C@H](CN(C)C(=O)Nc2ccc(F)cc2)OCCCC[C@H](C)Oc2ccc(NC(=O)NC3CCCCC3)cc2C1=O	2	-1	3.3
70	CN(C)C(=O)c1cccc(-c2ccc(C3[C@H]4CNC[C@@H]3N4Cc3cc(F)ccc3F)cc2)c1 (some centres not stated)	10&5	3&-12	6.6&16
71	COC(=O)C[C@@H]1CC[C@H]2[C@@H](COC[C@@H](O)CN2C(=O)Nc2cccc(F)c2)O1	4	-6	11
72	OC[C@H]1[C@H](c2ccc(Br)cc2)[C@@H]2CN(Cc3cncnc3)CCCCN12	29	13	15
73	C[C@@H]1CN([C@H](C)CO)C(=O)c2cccc(NS(=O)(=O)c3ccc(Cl)cc3)c2O[C@H]1CN(C)Cc1ccc(C(=O)Nc2ccccc2N)cc1	4	6	-1.3
74	COc1ccc2c3c(n(C)c2c1)[C@@H](CO)N(Cc1cc(F)ccc1F)CC31CCN(C(=O)C2CC2)CC1	?	.	.
75	COc1ccc2c3c([nH]c2c1)[C@H](CO)N(S(C)(=O)=O)CC31CCN(C(=O)CN(C)C)CC1	17	26	-9.4
76	C[C@@H]1CN([C@@H](C)CO)C(=O)CCCn2cc(nn2)CO[C@@H]1CN(C)C(=O)Nc1cccc(Oc2ccccn2)c1	6	6	0.0
77	O=C(O)C[C@H]1C[C@H]2c3cc(NC(=O)c4ccc5c(c4)OCO5)ccc3O[C@H]2[C@H](CO)O1	5	-1	6.1

# Exported field by field: part of the list above
66) C/C=C/c1ccc([C@@H]2[C@@H](CO)N[C@@H]2CN(C(=O)C2CCC2)C(C)C)cc1
  DUX4 txn inh = 1
  DUX4 txn inh difference = 2
  DUX4 txn inh control = -1.7

71) COC(=O)C[C@@H]1CC[C@H]2[C@@H](COC[C@@H](O)CN2C(=O)Nc2cccc(F)c2)O1
  DUX4 txn inh = 4
  DUX4 txn inh difference = -6
  DUX4 txn inh control = 11
